rRNA inh HTS – inhibits bacterial ribosomal RNA function over humanized ribosomes | E. coli WT GFP vs humanized-ribosome RFP mutants, fluorescence, 24 h; active compounds read low; DMSO median 0, no signal -100 | GFP signal change (wild-type ribosome), % (no concentration beside the values) | 350,000 tested, 1.6% active;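 active means significant combined selectivity score with lowered wild-type GFP, culture density cut under 30%, mutant RFP and density less affected; inactive means any of these conditions unmet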; further: one replicate is shown; some compounds called inactive have numbers as strong as hits
Calb FLC – C. albicans growth modulation with fluconazole; C. albicans CaCi-2 (fluconazole-resistant clinical isolate) + fluconazole, Alamar Blue growth, 48 h; growth inhibition, % (test concentration not listed); 300,000 tested, 0.57% active;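 active means most replicates above 75%; inconclusive means exactly half above 75%; inactive means most below 75%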;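 further: all wells also contain fluconazole at 8 µg/ml as a sub-toxic cotreatment; 0% = median of DMSO wells and 100% = median of geldanamycin control wells; wells of about 8 µL received 7.5 nL stock; the first replicate is given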
RanGTP-Impb inh – disruptors of Ran-importin-beta complex formation – biochemical, FRET, CFP-Ran, YFP-importin-beta, homogeneous, primary screen; cell-free CFP-Ran/YFP-importin-beta FRET ratio; inhibition, % (concentration not given with the values); AID 2216; 300,000 tested, 1.1% active;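 active means most replicates above 15%; inconclusive means exactly half above 15%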;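 further: 0% = DMSO wells and 100% = Ran loaded with GDP instead of GTP; wells of about 40 µL received 100 nL stock; the first replicate is given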
Vif TR-FRET – inhibitors of Vif binding to APOBEC3G peptide, primary screen, biochemical, TR-FRET, GST-Vif 1-94, biotin-A3G peptide, dose response retest (AID 1117319). 260,000 tested, 0.57% active. TR-FRET GST-Vif / biotin-A3G peptide binding; higher % means a stronger effect; test concentration not given here; strong numbers were not always called active. inhibition, %; hits with a dose series show IC50 in µM;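 active means above the screen mean plus three standard deviations and confirmed in dose response; inconclusive means results disagree or hit not tested in dose response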;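 further: Vif residues 1-94 fused to GST binding biotinylated APOBEC3G peptide 110-148; 0% = full assay without inhibitor and 100% = GST in place of GST-Vif; retest series ran down from 100 µM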
T cruzi repl – T. cruzi replication inhibition; AID 1885; T. cruzi beta-gal in NIH3T3, luminescence, 90 h; inhibition, % (concentration not given with the values); 300,000 tested, 1.4% active;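 active means mean inhibition across valid replicates above about 55%, limit read from the data; inconclusive means mean below that limit but half or more replicates reach it; inactive means mean below it, under half of replicates reach it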;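 further: signal also drops with host cell toxicity which is not excluded here; 0% = plate median of DMSO wells and 100% = zero luminescence signal; higher percent means less beta-gal luminescence so fewer parasites; stock transfer was 50 nL into about 50 µL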
AF4-AF9 inh – blocks AF4 peptide binding to human AF9; P42568; AlphaScreen, biotin-AF4 peptide binding to FLAG-AF9; inhibition, % at 10 µM; 350,000 tested, 0.47% active; AID 651704;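 active means every replicate reaching a set inhibition limit, whatever the replicate mean, cut at about 25% in these data; inconclusive means mean inhibition reaches that limit but some replicates miss it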;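 further: 0% = plate neutral control median and 100% = total signal loss; the record names both 10 and 1 µM as test concentration; the first replicate is given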
Target sequence (P42568 whole entry, looked up): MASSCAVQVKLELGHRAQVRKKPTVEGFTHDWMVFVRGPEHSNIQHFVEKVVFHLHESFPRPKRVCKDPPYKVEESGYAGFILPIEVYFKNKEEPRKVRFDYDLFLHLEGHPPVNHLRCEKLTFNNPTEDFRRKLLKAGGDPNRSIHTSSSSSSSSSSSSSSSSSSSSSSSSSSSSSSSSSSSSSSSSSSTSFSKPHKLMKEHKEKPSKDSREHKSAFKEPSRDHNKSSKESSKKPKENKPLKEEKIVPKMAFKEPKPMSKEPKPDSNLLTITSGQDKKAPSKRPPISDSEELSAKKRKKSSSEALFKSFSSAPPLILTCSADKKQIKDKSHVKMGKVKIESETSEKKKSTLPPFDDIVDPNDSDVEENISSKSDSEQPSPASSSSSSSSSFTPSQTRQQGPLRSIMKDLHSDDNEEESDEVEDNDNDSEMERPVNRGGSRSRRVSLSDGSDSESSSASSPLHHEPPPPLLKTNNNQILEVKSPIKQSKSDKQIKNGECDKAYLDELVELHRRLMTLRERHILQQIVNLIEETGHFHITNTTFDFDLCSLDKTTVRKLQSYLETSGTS
A1 inh – inhibitors of the anti-apoptotic protein A1, read as caspase activation; 330,000 tested, 0.066% active; MEF A1-2A-BIM cells, Caspase-Glo 3/7 luminescence, 3 h; percent of clofoctol response, vehicle zero; caspase activation, % (test concentration not listed); AID 2462;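 active means over half of replicate activation scores above 10%, or exactly half above 10 with the replicate mean above 10; inconclusive means replicate mean below 10 yet half the replicates above 10; inactive means over half of replicates below 10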;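 further: wells of about 30 µL received 50 nL stock; many hits fall short of the cut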
Beta cell apopt – beta cell apoptosis inhibition; INS-1E cytokine-induced death, ATP luminescence, 48 h; percent of positive-control rescue, neutral wells zero; protection from apoptosis, % (test concentration not listed); 300,000 tested, 0.8% active; AID 435005;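 active means all replicates at 75% or more, or half of them and the mean; inconclusive means half reach 75% but not the mean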;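 further: 0% = cytokine-treated negative control wells and 100% = positive control rescue; higher means more ATP so stronger rescue from cytokine killing; wells of about 40 µL received 100 nL stock; the first replicate is given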
rRNA inh HTS OD600 – further read-out of rRNA inh HTS, marked with its call; OD600 change, %; measured here: OD600 growth;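 optical density of the mix in the first replicate; 0 = DMSO median and -100 = no signal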
rRNA inh HTS RFP – further read-out of rRNA inh HTS, marked with its call; RFP signal change, %; measured here: RFP humanized mutant strains;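 first replicate; 0 = DMSO median and -100 = no signal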
* marks the source's active call; other numbers are inactive results; ? = inconclusive; . = not tested or not shown; & = joins results of further samples. The list is partial. The share of hits here may be higher or lower than overall.

cpd	SMILES	rRNA inh HTS	rRNA inh HTS OD600	rRNA inh HTS RFP	Calb FLC	RanGTP-Impb inh	Vif TR-FRET	T cruzi repl	AF4-AF9 inh	A1 inh	Beta cell apopt
1	O=C(Oc1ccc2c3c(c(=O)oc2c1)CCCC3)c1ccco1	.	.	.	-4	17*	-2%	-5	1.8	-0.9	3
2	CC1CCCN(C(=O)CN(C)S(=O)(=O)c2ccc3c(c2)c(=O)n(C)c(=O)n3C)C1 (stereo unspecified)	5	3	0.1	-6	-0.7	3%	-1	-12	-0.3	-5
3	CCc1nnc(SCC(=O)NCCC2=CCCCC2)nc1CC	3	4	-2.1	-6	0.4	.	14	0.3	1.4	-1
4	O=C(CSc1cccc2cccnc12)OCC(=O)c1ccccc1	.	.	.	6	4.1	3%	0	.	0.4	.
5	CS(=O)(=O)c1nc(-c2ccco2)cc(C(F)(F)F)n1	.	.	.	36	5.0	3%	55*	.	?	80*
6	O=C(CSc1ccc2nnc(-c3cccnc3)n2n1)NCc1ccc2c(c1)OCO2	3	3	-1.3	3	1.0	11%	-3	15	0.4	-10
7	COc1c(-c2ccc([N+](=O)[O-])cc2[N+](=O)[O-])c(=O)n(C)c(=O)n1C	1	18	0.0	2	6.4	2%	9	0.6	-2.3	-3
8	CCCNC(=O)c1ccc2c(=O)c(O)c(-c3ccsc3)[nH]c2c1	.	.	.	71	-58	.	-21	.	3.2	8
9	O=[N+]([O-])c1cc(S(=O)(=O)C(F)(F)F)ccc1Sc1nc2ccccc2s1	.	.	.	111*	-1.4	?	48	.	1.0	-5
10	COc1cc(CN2CCN(C(O)(c3ccccc3)c3ccccc3)CC2)cc(OC)c1OC	-2	-15	2.3	-51	2.2	1%	-17	4.2	0.8	4
11	C=C(C)CC1Nc2ccccc2NC1CC(=C)C (stereo unspecified)	.	.	.	1	-7.9	?	9	.	1.1	-10
12	N#CCCN1CCn2c1nc1ccccc12	.	.	.	2	1.1	-16%	-15	.	1.1	-7
13	COc1cc(NS(=O)(=O)c2ccc(NC(C)=O)cc2)nc(OC)n1	.	.	.	-1	-1.7	18%	4	.	-0.3	4
14	Cc1cccc(Nc2ccc(C(=O)N3CCOCC3)cn2)c1	8	4	2.1	1	-0.1	-1%	3	-0.4	0.4	-5
15	Cc1cnn(CCC(=O)NNC(=S)Nc2cccc(Cl)c2)c1	.	.	.	-3	0.6	5%	-12	.	-0.1	10
16	COC(=O)c1ccc(NC(=O)CCc2c(C)nc3ncnn3c2C)cc1	.	.	.	39	-3.2	1%	-5	.	0.0	-2
17	Cc1nnc(NC(=O)CSc2nnc(Cc3cccn3C)n2-c2cccc(C(F)(F)F)c2)s1	-6	-1	0.9	13	0.2	8%	-15	-2.6	0.2	1
18	CCc1cc(C(c2cccc(OC)c2)N2CCOCC2)c(NC(=O)c2ccccc2)s1 (stereo unspecified)	-2	-11	7.0	1	3.9	6%	0	.	0.6	-6
19	O=C(Nc1ccccc1)Nc1cnccn1	2	10	-0.8	4	0.8	.	3	-2.3	-3.1	5
20	Cc1ccc(S(=O)(=O)NCCC(=O)N(C)Cc2cccs2)cc1	0	6	-0.1	.	.	-15%	.	-2.1	1.3	-4
21	CC(C)OC(=O)c1cc2ccccc2[nH]1	.	.	.	-19	?	4%	-8	.	-0.1	-1
22	COc1ccc(Cl)cc1NC(=O)CNCC(c1ccccc1)N(C)C (stereo unspecified)	10	6	7.3	-2	2.5	-1%	8	3.6	0.5	3
23	N#CC1=C2SCN(c3ccccc3)CN2C(=O)CC1c1ccccc1Cl (stereo unspecified)	4	3	3.4	-3	-2.9	21%	12	0.8	-0.6	-1
24	Cn1cccc1C(=O)OCC(=O)NCCCc1ccccc1	-7	-3	3.0	.	.	.	.	0.8	-0.1	1
25	Cc1ccc(S(=O)(=O)Nc2cccc(C(=O)NCC(c3ccc(F)cc3)N3CCOCC3)c2)cc1 (stereo unspecified)	-6	-16	2.0	.	.	.	.	-1.3	0.2	4
26	Cc1ccc(NS(=O)(=O)c2ccc3c(c2)oc(=O)n3C)cc1C	-7	-8	3.8	15	-1.8	6%	0	-1.5	0.3	.
27	CN1C(=O)/C(=C\c2ccncc2)SC1=Nc1ccccc1	.	.	.	36	-3.4	.	-16	.	0.0	-2
28	Cn1c(=O)cc(OCC(=O)N2CCN(c3ccccc3F)CC2)c2ccccc21	-2	16	-3.2	6	1.6	-7%	5	-2.3	0.5	2
29	O=C(OCC(=O)N1CCc2ccccc21)c1n[nH]c(=O)c2ccccc12	7	9	-1.7	.	.	-9%	.	-1.8	1.9	2
30	N#Cc1ccccc1S(=O)(=O)N1CCN(C(=O)c2cc(=O)[nH]c3ccccc23)CC1	6	4	-2.1	.	.	-5%	.	-3.4	1.7	2
31	Cc1ccc(C(=O)NC(=S)Nc2ccc(NC(=O)c3cccs3)cc2)cc1[N+](=O)[O-]	.	.	.	-2	?	.	11	-4.6	-0.6	17
32	COCCNc1nnc(SC(C)C(=O)Nc2c(C)n(C)n(-c3ccccc3)c2=O)s1 (stereo unspecified)	5	25	4.6	-3	0.6	.	-10	1.3	0.4	-5
33	Cc1ccc(NC(=O)CSCCc2ccccn2)nc1	.	.	.	-1	0.2	-4%	-1	.	0.8	-7
34	Cc1ccccc1NC(=O)CN1C(=O)COc2ccc(S(=O)(=O)N3CCCC3)cc21	11	12	1.6	2	6.7	.	13	-8.0	0.1	-1
35	O=C(COC(=O)c1cc[n+]([O-])cc1)Nc1ccccc1Cl	9	5	-0.7	-3	?	2%	-6	3.7	0.3	.
36	CC(=O)c1cccc(Nc2cc(C)nc3ccccc23)c1	11	11	-8.1	-7	1.5	-9%	5	-11	-0.1	7
37	Cc1ccc(-n2c(SCC(=O)O)nc3c(sc(=S)n3-c3ccc(C)c(C)c3)c2=O)cc1	-29	-27	-20	-15	-1.2	-2%	-1	-3.1	0.0	.
38	Clc1ccc(CSc2nnc(-c3ccccn3)n2Cc2ccco2)c(Cl)c1	.	.	.	?	0.3	20%	19	.	-0.1	-3
39	Cc1ccc(S(=O)(=O)N(C)c2ccccc2)cc1	.	.	.	2	-1.6	19%	-7	.	0.8	-4
40	CC(C)CNC(=O)CC(c1ccccc1)c1c(O)ccc2ccccc12 (stereo unspecified)	.	.	.	6	4.9	-8%	7	.	-1.0	3
41	C=CCNC(=O)/C(=C\C=C\c1ccccc1)NC(=O)c1ccc(OCCCC)cc1	.	.	.	39	-2.9	4%	-2	.	0.0	-9
42	CC(C)C(NC(=O)OCc1ccccc1)C(=O)NC(Cc1ccc(O)cc1)C(=O)O (stereo unspecified)	19	13	1.6	1	1.1	-1%	2	2.3	-0.2	-3
43	Cc1cccc(C(=O)N2CCN(c3ccc([N+](=O)[O-])c(N4CCOCC4)c3)CC2)c1	.	.	.	0	-0.6	?	-4	.	0.2	3
44	COc1ccc(NC(=O)Nc2cc(C)ccc2OC)cc1	.	.	.	-10	2.2	-2%	-4	.	-7.3	-3
45	CCOc1cccc(=O)c2c(C)n(C)c(C)c12	.	.	.	2	-13	12µM*	6	.	-0.4	-7
46	CCC(C)(C)NC(=O)Cn1c(=O)oc2cc(S(=O)(=O)N3CC(C)CC(C)C3)ccc21 (stereo unspecified)	0	5	-3.2	4	1.3	.	6	-25	-2.0	-1
47	CCCn1c(=O)c2ccccc2n2c(SCC(=O)c3ccc(CC)cc3)nnc12	.	.	.	13	0.7	14%	6	.	0.1	9
48	CCN(CCn1cccn1)C(=O)CC1C(=O)NCCN1Cc1ccc(F)c(F)c1 (stereo unspecified)	10	1	-0.4	-27	1.5	.	-15	-1.3	-0.2	1
49	CCNc1cc(N2CCN(S(=O)(=O)c3ccc4c(c3)CCCC4)CC2)ccc1[N+](=O)[O-]	.	.	.	6	5.8	1%	28	.	-0.3	7
50	CC(NC(=O)CSc1nnc(CC(=O)Nc2ccc(Cl)c(Cl)c2)n1C)c1ccccc1 (stereo unspecified)	.	.	.	-4	-4.3	-9%&-2%	-9	.	1.5	-6

Continued.
cpd	SMILES	rRNA inh HTS	rRNA inh HTS OD600	rRNA inh HTS RFP	Calb FLC	RanGTP-Impb inh	Vif TR-FRET	T cruzi repl	AF4-AF9 inh	A1 inh	Beta cell apopt
51	CCC(=O)Nc1ccc2nc(C)n(Cc3ccccc3Cl)c(=O)c2c1	.	.	.	-1	-5.2	2%	46	.	1.2	4
52	CCOc1cc(/C=N/OC(C)=O)ccc1OCc1ccccc1	11	6	3.5	22	3.0	-12%	3	3.6	0.2	-1
53	Cc1ccc(-n2c(-c3ccccc3)n[nH]c2=S)cc1	.	.	.	-4	-0.5	20%	7	.	-0.3	-2
54	O=C(NCc1ccc2c(c1)OCO2)c1ccc(CN2CCOCC2)cc1	.	.	.	-13	0.2	2%	-18	.	2.3	2
55	NC(=S)Nc1ccc(F)cc1F	18	11	-1.1	13	4.6	.	-5	-1.4	0.3	-7
56	O=C(COc1cnc2ccccc2n1)NCCC1=CCCCC1	.	.	.	-2	2.8	?	2	.	0.3	-4
57	CCOC(=O)NNc1ccc2nonc2c1[N+](=O)[O-]	.	.	.	15	1.1	.	3	.	0.6	.
58	Cc1cc(C)c2[nH]c(=O)c(C(c3nnnn3C(C)(C)C)N3CCN(C(=O)c4ccco4)CC3)cc2c1 (stereo unspecified)	.	.	.	10	5.4	6%	-42	.	0.5	-9
59	CC1CCCCN1C(=O)CCS(=O)(=O)c1cc2c(cc1Cl)NC(=O)CO2 (stereo unspecified)	3	-2	-5.6	5	3.0	.	8	-2.3	.	-2
60	CC(C)c1ccc(NC(=S)NN2CCN(C)CC2)cc1	22	17	1.8	15	-1.8	4%	-13	-3.1	0.4	2

Assay outcomes as filed in PubChem.
